High-throughput results as filed in PubChem.
MT1-MMP act inh – blockers of MT1-MMP proenzyme processing, primary screen, HT1080 RFP-PRO-GFP cells, GFP/RFP fluorescence. Matrix metalloproteinase-14 (Homo sapiens), P50281. GFP/RFP ratio fluorescence, overnight; percent of plate control window, DMSO zero. GFP/RFP ratio change, % at 20 µM. actives 0.061% (n = 360,000). AID 651647, 2012;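 active = GFP/RFP ratio change of at least 30% with cell ATP level not reduced by more than half and red fluorescence within 50% of control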; also: strong numbers were not always called active
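Assay system – RFP-PRO-GFP reporter HT1080 cells · Compound dosing – single dose of 20 µM compound, 1% DMSO final · Incubation – overnight compound exposure at 37 °C · Measure – GFP/RFP fluorescence ratio · Benchmarks – DMSO wells and RFP-L50D-GFP cells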
CSC inhib – cancer stem cell viability inhibitors, primary screen, luminescence | cancer stem cell-like cells viability | inhibition, % at 7.5 µM | actives 1.1% (n = 300,000) | AID 2717, 2010;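 active = mean at 75% or more and at least half the replicates too; inconclusive = mean and replicates disagree; tested in HMLE shEcad cells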;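 also: 0% = median of negative and 100% = median of positive control wells; the first replicate is given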
UUG fidelity – modulators of yeast start codon fidelity, primary screen, whole organism, S. cerevisiae, single point, plate reader. AID 602363, 2012. actives 0.13% (n = 350,000). S. cerevisiae UUG-firefly luciferase reporter, luminescence/redox ratio. activity score, % at 18.7 µM;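 active = replicate mean at a twofold rise or more, about +100% in these data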;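 also: firefly luciferase made from a UUG start codon reports start codon fidelity; reporter light over untreated wells divided by growth signal over untreated wells; some hits fall short of that in this replicate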
Rce1 inh – yeast Rce1p protease inhibitors, primary screen, biochemical, fluorescence, cell-free homogeneous; CAAX prenyl protease 2 (Saccharomyces cerevisiae (strain ATCC 204508 / S288c)), Q03530; actives 0.27% (n = 290,000); AID 2563, 2010; calls only; yeast membranes, quenched prenylated peptide cleavage fluorescence;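 active = fall in fluorescence gain of 50% or more versus controls, with final raw signal at or below 3038400; inconclusive = same 50% fall but final raw signal above 3038400; inactive = fall in fluorescence gain under 50%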;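 also: plate controls were neutral control wells for no effect and wells lacking membranes for full effect; tested at 10 µM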
PABP polyA inh – PABP poly(A) RNA binding inhibitors, primary screen, biochemical, fluorescence polarization, uHTS; inhibition, % at 35 µM; actives 1% (n = 290,000); AID 2014, 2009;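 active = 50% or more with normal probe brightness, or confirmed in later tests; inconclusive = above 50% with abnormal brightness, or retests that disagree; inactive = below 50% or failed in later tests; about a fifth of its hits are not listed in these tables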;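 also: calls also rest on retests at 20 µM and on dose response follow-up; controls were probe without protein and protein plus probe with vehicle; some compounds called inactive have numbers as strong as hits; many hits fall short of the cut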
Target sequence (P11940 whole entry, looked up): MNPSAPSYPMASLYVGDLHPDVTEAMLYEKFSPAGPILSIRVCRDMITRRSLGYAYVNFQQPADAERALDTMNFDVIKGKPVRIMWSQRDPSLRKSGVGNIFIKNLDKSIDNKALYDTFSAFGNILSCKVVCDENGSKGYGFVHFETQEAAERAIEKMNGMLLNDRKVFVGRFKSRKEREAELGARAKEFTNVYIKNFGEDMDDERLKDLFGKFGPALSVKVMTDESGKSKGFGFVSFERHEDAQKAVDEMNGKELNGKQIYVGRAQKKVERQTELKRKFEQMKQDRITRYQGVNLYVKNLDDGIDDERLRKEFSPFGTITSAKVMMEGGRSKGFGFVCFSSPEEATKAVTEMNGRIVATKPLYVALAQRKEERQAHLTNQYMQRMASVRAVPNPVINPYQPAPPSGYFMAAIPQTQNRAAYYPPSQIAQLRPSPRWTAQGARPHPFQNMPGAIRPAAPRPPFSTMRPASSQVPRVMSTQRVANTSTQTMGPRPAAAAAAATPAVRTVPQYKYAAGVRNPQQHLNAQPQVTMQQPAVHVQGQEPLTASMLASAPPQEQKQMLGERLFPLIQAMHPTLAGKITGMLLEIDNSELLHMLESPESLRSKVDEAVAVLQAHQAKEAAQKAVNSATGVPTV
eIF4H FP inh – human eIF4H binding inhibitors, primary screen, translation initiation inhibitor project, biochemical, uHTS, fluorescence polarization; eIF4H fluorescence polarization binding assay; Eukaryotic translation initiation factor 4H (Homo sapiens), Q15056; actives 0.94% (n = 290,000); inhibition, % at 35 µM;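 active = 50% or more with normal probe brightness, or confirmed in later tests; inconclusive = above 50% with abnormal brightness, or retests that disagree; inactive = below 50% or failed in later tests; about a fifth of its hits are not listed in these tables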;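 also: calls also rest on retests at 20 µM and on dose response follow-up; 0% = protein and probe with vehicle and 100% = probe without protein; strong numbers were not always called active; many hits fall short of the cut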
Env fusion inh – inhibitors of HIV-1 Env-driven cell-cell fusion, primary screen, HeLa-JRFL effector, CEM21 target cells, luciferase; inhibition, % at 12.3 µM; actives 1.1% (n = 360,000); AID 651610, 2012;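 active = mean replicate inhibition score of at least 50 and every replicate individually at or above 50; inconclusive = only one of the two criteria met; inactive = mean below 50 and not all replicates reaching 50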;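 also: 0% = plate neutral controls and 100% = maraviroc near 300 nM; one replicate is shown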
MT1-MMP act inh RFP – also measured in MT1-MMP act inh; calls as there; RFP signal change, %; measured here: RFP expression control read;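 0 = vehicle wells; hits needed this value within 50% of zero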
* marks the source's active call; other numbers are inactive results; & = joins results of further samples.

How did O=C(NCCN1CCOCC1)c1cnn2c1NC(c1cccs1)CC2C(F)(F)F (stereo unspecified) do in these assays?
MT1-MMP act inh: 1.2; CSC inhib: 0.0; Rce1 inh: inactive; PABP polyA inh: -6.6; eIF4H FP inh: 5.7; Env fusion inh: -169.9; MT1-MMP act inh RFP: 1.1

How did COc1ccc(C(=O)NCCNc2ccccc2[N+](=O)[O-])cc1 do in these assays?
MT1-MMP act inh: 7.4; CSC inhib: -11.3; Rce1 inh: inactive; PABP polyA inh: 0.3; eIF4H FP inh: -1.0; Env fusion inh: -34.9; MT1-MMP act inh RFP: 4.5

What do the screens show for `Cc1ccc(N2CCN(C(=S)c3ccc(N(C)C)cc3)CC2)cc1`?
MT1-MMP act inh: -6.6; CSC inhib: 13.2; UUG fidelity: -5.4; Rce1 inh: inactive; PABP polyA inh: 2.7; eIF4H FP inh: -11.0; Env fusion inh: -32.7; MT1-MMP act inh RFP: -3.6

Results for COc1ccc(OC)c(-n2c(=S)[nH]c3cc(C(=O)N(C)Cc4ccccc4)ccc3c2=O)c1 ?
MT1-MMP act inh: 5.1; CSC inhib: -1.2; Rce1 inh: inactive; PABP polyA inh: -0.6; eIF4H FP inh: 3.6; Env fusion inh: -118.4; MT1-MMP act inh RFP: -4.2

How did Cc1cc(NC(=O)CCSc2ccccc2)ccc1Br do in these assays?
MT1-MMP act inh: 5.2; CSC inhib: 25.5; UUG fidelity: -4.7; Rce1 inh: inactive; PABP polyA inh: 15.1; eIF4H FP inh: -8.7; Env fusion inh: -7.9; MT1-MMP act inh RFP: 6.4

What do the screens show for `COc1c(S(=O)(=O)NCCCn2ccnc2)ccc(Cl)c1Cl`?
MT1-MMP act inh: -0.8; CSC inhib: 40.1; UUG fidelity: -14.1; Rce1 inh: inactive; PABP polyA inh: -9.2; eIF4H FP inh: -4.4; Env fusion inh: 6.2; MT1-MMP act inh RFP: 0.3

What do the screens show for `Cc1ccc(/C=N/N(Cc2ccccc2)c2ccccc2)o1`?
MT1-MMP act inh: 0.7; CSC inhib: 28.0; Rce1 inh: inactive; PABP polyA inh: 4.2; eIF4H FP inh: 4.2; Env fusion inh: 0.1; MT1-MMP act inh RFP: -1.2

What do the screens show for `COCCNC(=O)C1(C)CCN(C(=O)c2ccc(SC(F)(F)F)cc2)C1` (stereo unspecified)?
MT1-MMP act inh: 6.7; UUG fidelity: -7.1; Env fusion inh: 3.4; MT1-MMP act inh RFP: 8.8

What do the screens show for `O=C(NCCN1CCN(c2ccccc2F)CC1)C1CCCN(S(=O)(=O)c2cnc[nH]2)C1` (stereo unspecified)?
MT1-MMP act inh: 1.1; CSC inhib: -10.8; UUG fidelity: 12.1; Rce1 inh: inactive; PABP polyA inh: 2.4; eIF4H FP inh: -4.5; Env fusion inh: 24.3; MT1-MMP act inh RFP: 6.5

How did Cc1nn(C)c(C)c1NS(=O)(=O)c1cccc(Br)c1 do in these assays?
MT1-MMP act inh: 3.1; CSC inhib: -7.7; UUG fidelity: -6.7; Rce1 inh: inactive; Env fusion inh: 2.3; MT1-MMP act inh RFP: -11.4

How did O=C(COc1ccc(Cl)cc1Cl)NN1C(=O)C2C3C=CC([C@@H]2C1=O)C31CC1 (stereo partly specified) do in these assays?
MT1-MMP act inh: 1.8; CSC inhib: -3.1; Rce1 inh: inactive; PABP polyA inh: 6.3; eIF4H FP inh: 5.2; Env fusion inh: 6.5; MT1-MMP act inh RFP: 1.7

Results for CCOC(=O)C1=C(C)NC(C)=C(C(=O)OCC)C1c1cccc(C)n1 ?
MT1-MMP act inh: 3.2; CSC inhib: 9.0; Rce1 inh: inactive; PABP polyA inh: -8.5; eIF4H FP inh: -15.2; Env fusion inh: -3.6; MT1-MMP act inh RFP: 8.5

Results for CCN1CCN(c2oc(-c3ccc(OC)cc3)nc2C#N)CC1 ?
MT1-MMP act inh: 12.0; UUG fidelity: -2.5; Rce1 inh: inactive; MT1-MMP act inh RFP: 4.1

Results for Cc1cccc(CCNC(=O)c2oc3c(C)c(C)ccc3c2C)n1 ?
MT1-MMP act inh: -5.5; CSC inhib: -22.7; UUG fidelity: 3.2; Rce1 inh: inactive; PABP polyA inh: 2.0; eIF4H FP inh: -7.8; Env fusion inh: 3.0; MT1-MMP act inh RFP: -3.1

Results for CC(NS(=O)(=O)c1ccc(Br)cc1)C(c1cccs1)N1CCN(C)CC1 (stereo unspecified) ?
MT1-MMP act inh: -9.5; CSC inhib: 14.6; UUG fidelity: -13.2; Rce1 inh: inactive; PABP polyA inh: -9.0; eIF4H FP inh: -8.7; Env fusion inh: 10.8; MT1-MMP act inh RFP: -4.6

Compounds from the list above that have an NH in an aromatic ring, in the order listed:
Results for COc1ccc(OC)c(-n2c(=S)[nH]c3cc(C(=O)N(C)Cc4ccccc4)ccc3c2=O)c1 ?
MT1-MMP act inh: 5.1; CSC inhib: -1.2; Rce1 inh: inactive; PABP polyA inh: -0.6; eIF4H FP inh: 3.6; Env fusion inh: -118.4; MT1-MMP act inh RFP: -4.2

What do the screens show for `O=C(NCCN1CCN(c2ccccc2F)CC1)C1CCCN(S(=O)(=O)c2cnc[nH]2)C1` (stereo unspecified)?
MT1-MMP act inh: 1.1; CSC inhib: -10.8; UUG fidelity: 12.1; Rce1 inh: inactive; PABP polyA inh: 2.4; eIF4H FP inh: -4.5; Env fusion inh: 24.3; MT1-MMP act inh RFP: 6.5

(more compounds)
How did CCN(CC)C(=O)CSc1nc2ccccc2n1CC(=O)N1CCN(c2ccccc2OC)CC1 do in these assays?
MT1-MMP act inh: 5.1; CSC inhib: -7.6; UUG fidelity: -3.8; Rce1 inh: inactive; PABP polyA inh: -2.0; eIF4H FP inh: -9.1; MT1-MMP act inh RFP: 2.2

What do the screens show for `Cn1c(=O)c2c(nc(NCc3ccco3)n2Cc2ccccc2Cl)n(C)c1=O`?
MT1-MMP act inh: 0.8; CSC inhib: 12.0; UUG fidelity: -4.4; Rce1 inh: inactive; PABP polyA inh: 1.4; eIF4H FP inh: 4.8; MT1-MMP act inh RFP: -13.1

Results for C[C@H]1CN([C@@H](C)CO)C(=O)c2cccc(NC(=O)c3ccncc3)c2O[C@H]1CN(C)C(=O)Nc1ccccc1 ?
MT1-MMP act inh: -4.7; CSC inhib: -11.9; UUG fidelity: -0.9; Env fusion inh: -8.5; MT1-MMP act inh RFP: -2.8

What do the screens show for `Cc1ccc2nc(SCCCCOc3ccccc3)[nH]c2c1`?
MT1-MMP act inh: 6.0; CSC inhib: 0.3; Rce1 inh: inactive; PABP polyA inh: 1.1; eIF4H FP inh: 5.3; MT1-MMP act inh RFP: -0.3

Results for Cc1sc2ncnc(NCC(c3ccccc3)N(C)C)c2c1C (stereo unspecified) ?
MT1-MMP act inh: -6.1; CSC inhib: 8.0; UUG fidelity: -9.4; PABP polyA inh: -10.6; eIF4H FP inh: 9.2; Env fusion inh: 8.9; MT1-MMP act inh RFP: -8.5

How did CCc1ccc(NC(=O)N2CCN(C(=O)C3CCCO3)CC2)cc1 (stereo unspecified) do in these assays?
MT1-MMP act inh: 1.3; CSC inhib: 7.9; UUG fidelity: -0.2; Rce1 inh: inactive; PABP polyA inh: -8.7; eIF4H FP inh: -13.2; Env fusion inh: 2.3; MT1-MMP act inh RFP: 6.5

Results for C[C@H](CO)N1C[C@H](C)[C@@H](CN(C)S(=O)(=O)c2ccccc2)Oc2ccc(NC(=O)C3CC3)cc2C1=O ?
MT1-MMP act inh: 1.9; CSC inhib: 8.7; UUG fidelity: 5.4&-7.6; Env fusion inh: -51.9; MT1-MMP act inh RFP: 4.3

Results for COc1ccccc1CCNC(=O)c1nccnc1C(=O)O ?
MT1-MMP act inh: 0.7; CSC inhib: -10.3; UUG fidelity: -12.1; Rce1 inh: inactive; PABP polyA inh: 15.2; eIF4H FP inh: 7.1; MT1-MMP act inh RFP: 5.6

What do the screens show for `c1cncc(C(c2nnnn2C2CCCC2)N2CCN(Cc3ccc4c(c3)OCO4)CC2)c1` (stereo unspecified)?
MT1-MMP act inh: 2.1; CSC inhib: 13.4; UUG fidelity: -5.6; Rce1 inh: inactive; PABP polyA inh: -7.9; eIF4H FP inh: -6.5; Env fusion inh: -55.9; MT1-MMP act inh RFP: 2.1

How did N#Cc1cc(C#N)c(N2CCN(c3ccccn3)CC2)nc1N do in these assays?
MT1-MMP act inh: -5.9; CSC inhib: 2.6; Rce1 inh: inactive; PABP polyA inh: -3.8; eIF4H FP inh: -5.9; Env fusion inh: -152.1; MT1-MMP act inh RFP: 3.2

How did C=Cn1cc[n+](CC(=O)c2ccc(Br)s2)c1 do in these assays?
MT1-MMP act inh: -2.1; CSC inhib: -0.6; UUG fidelity: -18.0; Rce1 inh: inactive; PABP polyA inh: -2.9; eIF4H FP inh: 4.8; Env fusion inh: -2.1; MT1-MMP act inh RFP: 9.6

What do the screens show for `COC(=O)Cc1coc2cc(OC)ccc12`?
MT1-MMP act inh: -0.6; CSC inhib: 1.2; UUG fidelity: -16.7; Env fusion inh: -19.1; MT1-MMP act inh RFP: 4.0

Results for Cc1cc(NC(=O)CCC(=O)N(c2ccccc2)C(C(=O)NC2CCCC2)c2ccc(F)cc2)no1 (stereo unspecified) ?
MT1-MMP act inh: -3.2; UUG fidelity: -38.4; Rce1 inh: inactive; PABP polyA inh: 14.4; eIF4H FP inh: 3.5; Env fusion inh: -43.2; MT1-MMP act inh RFP: 1.5

Results for O=C(Cn1c(CO)nc2ccccc21)Nc1cc(C(F)(F)F)ccc1N1CCOCC1 ?
MT1-MMP act inh: 14.7; CSC inhib: 1.1; UUG fidelity: -6.1; Rce1 inh: inactive; PABP polyA inh: 4.7; eIF4H FP inh: 1.0; Env fusion inh: 10.7; MT1-MMP act inh RFP: 1.8

Results for Cc1ccc(OCCn2nnc3ccccc32)cc1C ?
MT1-MMP act inh: 3.6; CSC inhib: -8.6; UUG fidelity: -3.6; Rce1 inh: inactive; PABP polyA inh: 13.3; eIF4H FP inh: 4.0; Env fusion inh: -22.3; MT1-MMP act inh RFP: -7.2

Results for CN(C)S(=O)(=O)c1ccc(Cl)c(C(=O)OCC(=O)NC(=O)c2cccn2C)c1 ?
MT1-MMP act inh: -2.6; CSC inhib: -0.8; Rce1 inh: inactive; PABP polyA inh: -2.8; eIF4H FP inh: 6.1; Env fusion inh: inconclusive; MT1-MMP act inh RFP: 3.9

How did COc1cc(/C=N/N(C)c2ccccc2)ccc1O do in these assays?
MT1-MMP act inh: -0.4; CSC inhib: 30.8; UUG fidelity: -26.5; Rce1 inh: inactive; PABP polyA inh: 5.9; eIF4H FP inh: 3.2; Env fusion inh: -244.7; MT1-MMP act inh RFP: -1.0

How did Cc1ccc(-c2csc(NC(=S)NC(=O)c3ccco3)n2)cc1 do in these assays?
MT1-MMP act inh: 6.2; CSC inhib: 9.8; Rce1 inh: inactive; PABP polyA inh: 7.9; eIF4H FP inh: -3.8; Env fusion inh: -5.7; MT1-MMP act inh RFP: 5.5

How did C/C(CC(=O)Nc1ccc2ccccc2c1)=N\NC(=O)c1cnccn1 do in these assays?
MT1-MMP act inh: -2.6; CSC inhib: 4.0; Rce1 inh: inactive; PABP polyA inh: 6.4; eIF4H FP inh: -6.4; Env fusion inh: -19.9; MT1-MMP act inh RFP: -2.8
